# PolyA inhibitor: inhibitors of polyadenylation in S. cerevisiae. S. cerevisiae SKY197-pL101 polyadenylation reporter, beta-gal luminescence; efflux-impaired pdr1/pdr3 knockout yeast; score 100 = 6 SD above DMSO. calls only at 12 µM. hit rate 0.02% among 300,000. AID 1875;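 active = lowest replicate activity score at least 50, where 100 means six control SD above control mean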;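 also: yeast exposed to compound for 9 h at 30 °C; higher score means more reporter readthrough which indicates perturbed polyadenylation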
# GSK3 alpha inh: inhibitors of human GSK-3 alpha kinase; ADP-Glo luminescence, 60 min; inhibition, % at 10 µM; hit rate 0.1% among 320,000; AID 2650;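 in the data active = inhibition above about 50%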;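 also: GST-tagged GSK-3 alpha with peptide substrate and 25 µM ATP; 0% = DMSO neutral wells and 100% = GW8510 positive control wells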
# KCNQ1 act: potentiates or activates the human KCNQ1 potassium channel | CHO-K1 KCNQ1, thallium flux FluxOR fluorescence; stronger effect = higher value | B-score at 10 µM | hit rate 0.35% among 310,000;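 active = fluorescence ratio B-score, a plate-corrected score, at least three library SD, with initial intensity B-score within 5 SD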
#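 Assay system: CHO-K1 cells stably expressing KCNQ1; Medium: assay buffer with matched DMSO; Also added: K+/Tl+ depolarizing stimulus; Dosing: single dose; Timing: dye 90 min, compound 20 min, room temperature; Measured by: kinetic FluxOR thallium fluorescence, 10-s 1-Hz baseline, 110-s post-stimulus read; Read-out: peak-minus-minimum fluorescence over initial fluorescence, negative-control normalized, B-scored.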
# KCNK3 block: human KCNK3 channel inhibition, primary screen. O14649. CHO-KCNK3 thallium flux, FluxOR fluorescence; stronger effect = lower value. B-score at 10 µM. hit rate 0.84% among 340,000. AID 602410;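 active = B-score under library mean minus 4 SD, starting fluorescence ratio at most library mean plus 5 SD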;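 also: more negative B-score means stronger inhibition of thallium flux through KCNK3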
# Target sequence (O14649 whole entry, looked up): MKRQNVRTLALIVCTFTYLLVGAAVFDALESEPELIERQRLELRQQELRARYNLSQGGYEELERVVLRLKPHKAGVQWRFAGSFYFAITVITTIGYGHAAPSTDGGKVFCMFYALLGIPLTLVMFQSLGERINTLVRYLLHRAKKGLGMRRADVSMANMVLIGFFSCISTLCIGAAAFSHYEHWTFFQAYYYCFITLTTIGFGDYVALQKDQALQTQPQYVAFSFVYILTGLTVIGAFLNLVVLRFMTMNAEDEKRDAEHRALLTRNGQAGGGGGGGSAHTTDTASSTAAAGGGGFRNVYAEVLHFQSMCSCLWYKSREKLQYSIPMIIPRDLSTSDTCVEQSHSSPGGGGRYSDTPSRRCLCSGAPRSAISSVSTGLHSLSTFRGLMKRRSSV
# KCNK9 inh: blocks the human KCNK9 two-pore domain potassium channel; HEK293 KCNK9, FluxOR thallium flux fluorescence; stronger effect = lower value; Q9NPC2; hit rate 1.2% among 310,000; B-score at 10 µM;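 active = ratio B-score over 3 SD below the library mean, with starting fluorescence within 5 SD of its mean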;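 also: negative B-score means less thallium flux so channel inhibition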
# Target sequence (Q9NPC2 whole entry, looked up, the tested form may be a part): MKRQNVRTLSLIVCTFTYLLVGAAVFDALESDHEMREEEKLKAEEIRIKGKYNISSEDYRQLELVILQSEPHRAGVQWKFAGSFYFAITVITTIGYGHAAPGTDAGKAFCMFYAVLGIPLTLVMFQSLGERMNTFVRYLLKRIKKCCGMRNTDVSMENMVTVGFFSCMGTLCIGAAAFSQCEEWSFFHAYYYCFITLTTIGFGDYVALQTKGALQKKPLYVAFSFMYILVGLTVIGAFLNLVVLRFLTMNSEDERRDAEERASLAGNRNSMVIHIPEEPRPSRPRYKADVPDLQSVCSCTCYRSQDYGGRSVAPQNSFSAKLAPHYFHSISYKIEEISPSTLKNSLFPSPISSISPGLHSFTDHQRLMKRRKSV
# hERG rescue: shields human hERG channel from block by proarrhythmic agents; activation (rescue from dofetilide block), less the hit threshold, % at 10 µM; CHO-hERG, FluxOR thallium flux, dofetilide IC70 present; Q12809; hit rate 0.51% among 310,000;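 active = activation above the mean of controls blocked by dofetilide plus 5 SD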;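 also: thallium influx through hERG after potassium depolarization seen as dye fluorescence rise; in these data hits start at about 4.7%; inactives centre near -7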
# RGS4 block: inhibitors of human RGS4 | B-score at 10 µM | AID 463165 | HEK293 M3R/RGS4 inducible, Fluo-4 calcium flux; stronger effect = higher value; triggered by carbachol at its EC20 | hit rate 0.45% among 310,000 | P49798;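 active = B-score, a plate-corrected calcium signal, over three deviations above library mean, with baseline fluorescence within five deviations of library mean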;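 also: RGS4 expression induced by doxycycline in cells with stable M3 receptor; B-score is computed from the integrated fluorescence ratio over baseline after carbachol; higher B-score means a larger calcium signal and so more RGS4 inhibition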
# Target sequence (P49798 whole entry, looked up): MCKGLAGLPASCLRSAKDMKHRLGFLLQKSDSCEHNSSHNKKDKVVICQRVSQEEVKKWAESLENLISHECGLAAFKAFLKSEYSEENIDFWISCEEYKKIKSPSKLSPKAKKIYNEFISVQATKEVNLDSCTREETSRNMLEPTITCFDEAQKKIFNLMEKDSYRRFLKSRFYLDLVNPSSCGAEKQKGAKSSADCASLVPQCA
# GSK3beta inhib: blocks human GSK3beta kinase activity; P49841; GST-GSK3beta kinase, ADP-Glo luminescence, 60 min; stronger effect = lower value; activity score (negative = inhibition), % at 10 µM; hit rate 0.038% among 300,000; AID 2097;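 active = more than half of replicate wells score below -50%, meaning over 50% inhibition versus plate controls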;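 also: 0% = median DMSO wells and -100% = median GW8510 positive control wells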
#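 Test system: GST-fused GSK3beta enzyme, cell-free | Quantity: 1.6 ng GST-GSK3beta enzyme per well | Reagent: 25 µM ATP with peptide substrate | Schedule: 60 min enzyme reaction, room temperature | Signal: Luminescent ADP-Glo measurement of ADP formed | Read-out basis: Score relative to plate controls | Control set: DMSO and 20 µM GW8510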
# RGS4 pot: RGS4 potentiation or activation | AID 463111 | B-score at 10 µM | HEK293 M3R/inducible RGS4, carbachol calcium flux Fluo4; stronger effect = lower value | hit rate 0.92% among 310,000;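 active = B-score of the integrated calcium signal more than 4 SD below the library mean, with starting fluorescence not abnormally high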;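 also: negative B-score means reduced calcium response which marks RGS4 activation or potentiation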
#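 Test system: HEK293 cells with stable M3R and inducible RGS4; also added: carbachol at ECmax as muscarinic agonist stimulus; schedule: dye loading 30 min 37 °C, buffer rest 30 min RT; technique: kinetic calcium fluorescence imaging with Fluo4-AM dye, 2 µM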
# KCNQ1 inh: inhibitors of human KCNQ1 potassium channel; hit rate 1.3% among 310,000; CHO-K1 KCNQ1, FluxOR thallium flux fluorescence; stronger effect = higher value; B-score at 10 µM; P51787;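 active = compounds whose thallium flux B-score, printed positive for inhibition, exceeds three library SD while starting fluorescence stays within three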;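 also: channel opened by potassium depolarization with thallium stimulus after 20 min compound exposure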
# * hit, by the source's call; i = inactive; x = not tested or not shown. Not all compounds are listed. The share of hits here may be higher or lower than overall.
1. Cc1ccc(OCc2nnc(SCC(=O)Nc3ccc4c(c3)OCCO4)n2Cc2ccco2)cc1
2. Cc1oc(-c2ccc(-c3ccccc3)cc2)nc1CN(C)C1CCOC1 (centres undefined)
3. NC(=O)c1ccccc1OCc1cccc2ccccc12
4. CN(C)/C=C/C(=O)c1ccc(N2CCN(c3ncc(C(F)(F)F)cc3Cl)CC2)cc1
5. Cc1cc(=O)oc2c1ccc1ccccc12
6. O=c1sc2ccccc2c(N2CCOCC2)c1[N+](=O)[O-]

assay / entry	1	2	3	4	5	6
PolyA inhibitor	i	i	i	i	i	i
GSK3 alpha inh	-3	-5	-2	-4	4	-1
KCNQ1 act	i	i	i	i	i	i
KCNK3 block	i	i	i	i	i	i
KCNK9 inh	i	i	i	i	i	i
hERG rescue	-4	-19	2	-7	-3	-2
RGS4 block	i	i	i	i	i	i
GSK3beta inhib	0	-2	2	-21	-5	2
RGS4 pot	i	i	i	i	i	i
KCNQ1 inh	i	i	i	i	i	i

7. c1ccc(-c2nnc3n2NC(c2ccc4c(c2)OCO4)S3)cc1 (centres undefined)
8. CC1(OC(=O)CCc2ccccc2)C(=O)C=C2C=C(c3ccc(C#N)cc3)N(CC3CC3)C=C2C1=O (centres undefined)
9. COC(=O)c1cccc(NC(=O)NC2CCCN2S(=O)(=O)c2ccc(Cl)cc2)c1 (centres undefined)
10. Cc1sc2ncn(CC(=O)NCCCC(=O)N3CCC(C(N)=O)CC3)c(=O)c2c1C
11. Brc1ccc(-c2nnc3ccc(N4CCN(c5ccccc5)CC4)nn23)cc1
12. COc1cccc(C(=O)Nc2cccc(OC(C)=O)c2)c1

assay / entry	7	8	9	10	11	12
PolyA inhibitor	i	i	i	i	i	i
GSK3 alpha inh	13	-1	x	-2	1	4
KCNQ1 act	i	i	i	i	i	i
KCNK3 block	i	i	i	i	i	i
KCNK9 inh	i	i	i	i	i	i
hERG rescue	-14	-3	-6	-4	-5	-1
RGS4 block	i	i	i	i	i	i
GSK3beta inhib	0	2	-3	0	1	-3
RGS4 pot	i	i	i	i	i	i
KCNQ1 inh	i	i	i	i	i	i

# Another view of 11 compounds above.
cpd	Molecule	PolyA inhibitor	GSK3 alpha inh	KCNQ1 act	KCNK3 block	KCNK9 inh	hERG rescue	RGS4 block	GSK3beta inhib	RGS4 pot	KCNQ1 inh
1	Cc1ccc(OCc2nnc(SCC(=O)Nc3ccc4c(c3)OCCO4)n2Cc2ccco2)cc1	i	-3	i	i	i	-4	i	0	i	i
2	Cc1oc(-c2ccc(-c3ccccc3)cc2)nc1CN(C)C1CCOC1 (centres undefined)	i	-5	i	i	i	-19	i	-2	i	i
3	NC(=O)c1ccccc1OCc1cccc2ccccc12	i	-2	i	i	i	2	i	2	i	i
4	CN(C)/C=C/C(=O)c1ccc(N2CCN(c3ncc(C(F)(F)F)cc3Cl)CC2)cc1	i	-4	i	i	i	-7	i	-21	i	i
5	Cc1cc(=O)oc2c1ccc1ccccc12	i	4	i	i	i	-3	i	-5	i	i
6	O=c1sc2ccccc2c(N2CCOCC2)c1[N+](=O)[O-]	i	-1	i	i	i	-2	i	2	i	i
7	c1ccc(-c2nnc3n2NC(c2ccc4c(c2)OCO4)S3)cc1 (centres undefined)	i	13	i	i	i	-14	i	0	i	i
8	CC1(OC(=O)CCc2ccccc2)C(=O)C=C2C=C(c3ccc(C#N)cc3)N(CC3CC3)C=C2C1=O (centres undefined)	i	-1	i	i	i	-3	i	2	i	i
9	COC(=O)c1cccc(NC(=O)NC2CCCN2S(=O)(=O)c2ccc(Cl)cc2)c1 (centres undefined)	i	x	i	i	i	-6	i	-3	i	i
10	Cc1sc2ncn(CC(=O)NCCCC(=O)N3CCC(C(N)=O)CC3)c(=O)c2c1C	i	-2	i	i	i	-4	i	0	i	i
11	Brc1ccc(-c2nnc3ccc(N4CCN(c5ccccc5)CC4)nn23)cc1	i	1	i	i	i	-5	i	1	i	i

# (list continues)
13. CC1CCN(CC(=O)Nc2ccc3c(c2)OCO3)CC1
14. CS(=O)(=O)N1CC(C(=O)NC2CC2)Oc2ccc(Cl)cc21 (centres undefined)
15. CC(C)=CC(=O)Nc1nc2ccc([N+](=O)[O-])cc2s1
16. CC1CN(C2CC(C)(C)NC(C)(C)C2)CCC1=O (centres undefined)
17. CCOC(=O)Nc1ccc2c(c1)C(=NO)c1ccccc1-2
18. O=c1c2ccccc2nc(-c2cccc(Cl)c2)n1O

assay / entry	13	14	15	16	17	18
PolyA inhibitor	x	i	i	i	x	i
GSK3 alpha inh	x	0	x	-1	x	-2
KCNQ1 act	x	i	i	i	x	13*
KCNK3 block	i	i	i	i	i	i
KCNK9 inh	x	i	i	i	x	i
hERG rescue	x	-10	-9	-8	x	23*
RGS4 block	x	i	i	i	x	i
GSK3beta inhib	x	-1	4	-3	x	3
RGS4 pot	x	i	i	i	x	i
KCNQ1 inh	x	i	i	i	x	i

19. Nc1c(-c2ccc(F)cc2)cnn1C1CCS(=O)(=O)C1 (centres undefined)
20. COC(=O)c1ccccc1N(C)S(C)(=O)=O
21. COc1ccc(/C=C2/Sc3ccc(C(=O)N4CCOCC4)cc3NC2=O)cc1OC
22. O=C(CCc1ccccc1)Nc1nnc(-c2ccc3c(c2)CCCC3)o1
23. CCN(CC)S(=O)(=O)c1cc(C(=O)n2cccn2)c(Cl)cc1Cl
24. Cc1ccc(S(=O)(=O)N(C)C)cc1N

assay / entry	19	20	21	22	23	24
PolyA inhibitor	i	i	i	i	i	i
GSK3 alpha inh	9	-1	2	-1	-4	-1
KCNQ1 act	i	i	i	i	i	i
KCNK3 block	i	i	i	i	i	i
KCNK9 inh	i	i	i	i	i	i
hERG rescue	-6	1	-5	-20	0	-5
RGS4 block	i	i	i	i	i	i
GSK3beta inhib	-1	-2	1	1	3	2
RGS4 pot	i	i	i	i	i	i
KCNQ1 inh	i	i	i	i	i	i

25. Cc1nc2sc3c(c2c2nnc(SCC(=O)NCc4ccco4)n12)CCCC3
26. O=C(COC(=O)c1cc([N+](=O)[O-])ccc1NCCO)Nc1ccc2c(c1)OCO2
27. CCOC(=O)c1cnc(SCC)[nH]c1=O
28. COc1ccc(S(=O)(=O)N2CCCC2C(=O)Nc2ccc(C)cc2)cc1 (centres undefined)
29. COc1ccc(CNc2nc3c(c(=O)n(Cc4ccc(Cl)cc4)c(=O)n3C)n2C)cc1
30. CCn1c(COc2cccc(C)c2)nnc1SCC(=O)Nc1cccc(C(=O)O)c1

assay / entry	25	26	27	28	29	30
PolyA inhibitor	i	i	i	i	i	i
GSK3 alpha inh	-2	0	1	-2	1	-2
KCNQ1 act	i	i	i	i	i	i
KCNK3 block	i	i	i	i	i	i
KCNK9 inh	i	i	i	i	i	i
hERG rescue	-13	-12	-5	-2	-12	-10
RGS4 block	i	i	i	i	i	i
GSK3beta inhib	1	-3	3	4	1	-3
RGS4 pot	i	i	i	i	i	i
KCNQ1 inh	i	i	i	i	i	i

31. Oc1ccc(Nc2nc(-c3ccccc3F)nc3ccccc23)cc1
32. NNc1nc(N)c2c(n1)-c1ccccc1CC21CCCC1
33. O=C1CC(N2CCC(c3nc4ccccc4[nH]3)CC2)C(=O)N1Cc1ccccc1 (centres undefined)
34. CN(C(=O)c1cc2c(s1)-c1ccccc1S(=O)(=O)C2)c1ccccc1
35. c1ccc(-c2nnc3ccc(N4CCC5(CC4)OCCO5)nn23)cc1
36. CCN(CCCNC(=O)C1CCN(S(=O)(=O)c2cnc[nH]2)CC1)c1ccccc1

assay / entry	31	32	33	34	35	36
PolyA inhibitor	i	i	i	i	i	i
GSK3 alpha inh	3	7	1	4	20	0
KCNQ1 act	i	i	i	i	i	i
KCNK3 block	i	i	i	i	i	i
KCNK9 inh	i	i	i	i	i	i
hERG rescue	-11	-8	-4	-7	-1	-8
RGS4 block	i	i	i	i	i	i
GSK3beta inhib	-8	0	-2	1	-15	2
RGS4 pot	i	i	i	i	i	i
KCNQ1 inh	i	i	i	i	i	i

37. COc1ccc(-c2csc(NC(=O)CSc3n[nH]c(C)n3)n2)cc1
38. COc1ccc(CC(=O)Nc2nc3ccc(F)cc3s2)cc1S(=O)(=O)N1CCOCC1
39. O=c1cc(CN2CCC3(CC2)OCCO3)c2c(ccc3ccccc32)o1
40. O=C(c1ccco1)N1CCN(c2nc(C3CC3)nc3sc4c(c23)CCCC4)CC1
41. Cc1nc2ccc(NC(=O)NCc3ccco3)cc2s1
42. COc1ccc(C2CC2/C(=N/OC(=O)c2cccs2)c2ccccc2)cc1 (centres undefined)

assay / entry	37	38	39	40	41	42
PolyA inhibitor	i	i	i	i	i	i
GSK3 alpha inh	0	2	5	-2	3	-1
KCNQ1 act	i	i	i	i	i	i
KCNK3 block	i	i	i	-8.7*	i	i
KCNK9 inh	i	i	i	-19*	i	i
hERG rescue	-14	-16	-11	-18	-16	-7
RGS4 block	i	i	i	i	i	i
GSK3beta inhib	0	-2	5	5	11	4
RGS4 pot	i	i	i	-8.5*	i	i
KCNQ1 inh	i	i	i	i	i	i

43. CN(Cc1ccco1)c1ncnc2ccc(-c3ccoc3)cc12
44. COc1ccc(C(=O)N2CCC(n3c(C)nc4cc(F)ccc43)CC2)cc1
45. O=C(CSc1ccc2nnc(-c3cccs3)n2n1)N1CCOCC1
46. Nc1c(-c2ccc(Cl)cc2)cnn1C1CCS(=O)(=O)C1 (centres undefined)
47. O=C(c1ccc(CSCc2ccccc2F)o1)N1CCN(c2ccc(N3CCOCC3)nn2)CC1
48. O=S(=O)(c1cccc(C(F)(F)F)c1)N1CCC(O)(c2cccnc2)CC1

assay / entry	43	44	45	46	47	48
PolyA inhibitor	x	i	x	i	i	i
GSK3 alpha inh	7	1	x	-2	2	-2
KCNQ1 act	x	i	x	i	i	i
KCNK3 block	i	i	i	i	i	i
KCNK9 inh	x	i	x	i	i	i
hERG rescue	x	-1	x	-10	-15	-6
RGS4 block	x	i	x	i	i	i
GSK3beta inhib	x	0	x	1	-1	-3
RGS4 pot	x	i	x	i	i	i
KCNQ1 inh	x	i	x	i	i	i
